# Screens from PubChem BioAssay.
# TRPV1 PAM = HTS Assay for Compounds that Act as Potentiators of the Vanilloid Receptor 1. potentiation, % at 8.33 µM. actives 0.02% (n = 320,000). Transient receptor potential cation channel subfamily V member 1 (Homo sapiens), Q8NER1. TRPV1-expressing cells, Fluo-8 calcium influx, capsaicin EC20 potentiation; host cell line not named in the record; control for the full effect not named in the record; active means potentiation above 80%; inconclusive means 30% to 80%; inactive means below 30%; note: 0% is about no effect
# Target sequence (Q8NER1 whole entry, looked up): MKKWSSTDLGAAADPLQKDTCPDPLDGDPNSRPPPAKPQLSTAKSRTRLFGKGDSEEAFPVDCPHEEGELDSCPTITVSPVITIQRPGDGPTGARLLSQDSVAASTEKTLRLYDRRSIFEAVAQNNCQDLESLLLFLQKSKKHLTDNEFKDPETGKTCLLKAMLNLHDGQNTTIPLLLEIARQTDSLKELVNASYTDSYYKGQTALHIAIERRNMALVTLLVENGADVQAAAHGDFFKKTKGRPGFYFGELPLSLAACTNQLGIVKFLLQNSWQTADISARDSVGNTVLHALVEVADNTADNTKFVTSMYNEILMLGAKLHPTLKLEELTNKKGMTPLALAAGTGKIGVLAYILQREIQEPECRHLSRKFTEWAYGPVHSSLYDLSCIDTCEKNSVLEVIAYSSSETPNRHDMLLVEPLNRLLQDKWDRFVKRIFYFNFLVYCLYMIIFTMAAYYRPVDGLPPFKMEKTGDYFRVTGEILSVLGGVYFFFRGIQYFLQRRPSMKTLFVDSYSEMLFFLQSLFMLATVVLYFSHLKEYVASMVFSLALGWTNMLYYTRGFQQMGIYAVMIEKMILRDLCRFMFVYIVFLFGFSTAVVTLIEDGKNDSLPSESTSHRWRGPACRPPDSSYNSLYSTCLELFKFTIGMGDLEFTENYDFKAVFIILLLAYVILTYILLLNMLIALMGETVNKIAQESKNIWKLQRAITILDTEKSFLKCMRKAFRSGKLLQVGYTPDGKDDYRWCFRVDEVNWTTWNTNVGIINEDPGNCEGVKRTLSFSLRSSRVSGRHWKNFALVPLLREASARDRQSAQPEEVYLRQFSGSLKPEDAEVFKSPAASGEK
#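 TRPV1-expressing cells were cultured overnight at 35.5C and loaded with Fluo-8 calcium dye for 40 to 90 min at room temperature. After a 10 s baseline, compound was added and calcium influx was read kinetically for 3 min (ex 480/em 520 nm).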
# D2 potentiator = Beta-Arrestin HTS for Positive Allosteric Modulators of the Human D2 Dopamine Receptor: Potentiators; actives 0.23% (n = 360,000); DiscoveRx D2 beta-arrestin cells, luminescence, 90 min; 100% = 57 uM dopamine signal; potentiation, % (concentration not given with the values); AID 624464, 2012; active = potentiation of 50% or more; inconclusive = 30% to 50%; inactive = 30% or less;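 note: compound concentration not given in the record; tested on top of an EC20 dose of dopamine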
#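 PathHunter beta-arrestin assay in DiscoveRx D2 cells. Compounds were added with an EC20 of dopamine (50 nM final) for 90 min at 37 deg C. Luminescence was read 1 h after detection reagent, with 57 uM dopamine as the EC100 control.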
# TRPML1 ag = qHTS for Agonists of the Human Mucolipin Transient Receptor Potential 1 (TRPML1); Mucolipin-1 (Homo sapiens), Q9GZU1; TRPML1-expressing cells, Ca2+ dye fluorescence, FDSS; host cell line not named in the record; reference of the full effect not given here; activation, % (test concentration not listed); actives 0.12% (n = 410,000); in the data active = activation above about 50%; inconclusive = about 30% to 50%; inactive = below about 30%; note: 0% is about no effect; the text of the record puts the active cut at 80%
#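 Agonist activity was taken from a 110 s kinetic Ca2+ dye read on the FDSS after pinning compounds onto TRPML1-DL cells. The cells were seeded at 1,500/well with Tet inducer, incubated about 16 h, then dye-loaded at room temperature.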
# CtBP-E1A blk = qHTS Assay for Inhibitors of the CtBP/E1A Interaction; AlphaScreen GST-E1A/His-CtBP binding, 1536-well; stronger effect = lower value; control for the full effect not named in the record; actives 0.49% (n = 340,000); activity change, % (no concentration beside the values); CtBP / adenovirus E1A interaction (AlphaScreen); AID 651724, 2012; in the data active means activity change below about -65%; inconclusive means about -30% to -65%; inactive means above about -30%; note: % is set by controls: 0 for no effect and ±100 for the full control effect; compound concentration not given in the record
#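 Homogeneous bead-based format: GST-tagged E1A captured on glutathione donor beads, His-tagged CtBP on nickel acceptor beads; compounds precede bead addition by 2 h at 37 °C.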
# TRPML1 inh = qHTS for Inhibitors of the Human Mucolipin Transient Receptor Potential 1 (TRPML1). Mucolipin-1 (Homo sapiens), Q9GZU1. TRPML1-inducible cells, Ca2+ dye fluorescence, FDSS; stronger effect = lower value; inhibition of EC80 agonist-evoked calcium signal. AID 624415, 2012. actives 0.02% (n = 390,000). activity change, negative = inhibition, % (test concentration not listed); in the data active means activity change below about -50%; inconclusive means about -30% to -50%; inactive means above about -30%;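 note: stimulus is agonist 54-4 at its EC80 concentration; % is set by controls: 0 for no effect and ±100 for the full control effect; compound concentration not given in the record; the text of the record puts the active cut at -80%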
#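 TRPML1-DL cells, Tet-induced overnight (~16 h, 37 °C) at 1,500 cells/well, were loaded with Ca8 no-wash dye plus quencher for 45-90 min at room temperature. Compounds were pinned during FDSS kinetic reading; agonist 54-4 at EC80 (4 uM final) then added.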
# Six1-Eya2 blk = qHTS Assay for Inhibitors of the Six1/Eya2 Interaction | Homeobox protein SIX1 (Homo sapiens) + Protein phosphatase EYA2 (Homo sapiens), … | AlphaScreen GST-Six1/His-Eya2 binding, biochemical; stronger effect = lower value; control for the full effect not named in the record | activity change, % (test concentration not listed) | actives 0.56% (n = 360,000) | AID 651725, 2012; in the data active = activity change below about -65%; inconclusive = about -30% to -65%; inactive = above about -30%; note: % is set by controls: 0 for no effect and ±100 for the full control effect; compound concentration not given in the record
#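 AlphaScreen luminescence read after one hour at 37 °C in darkness. Pin-transferred compounds met GST-Six1 and His-Eya2 protein (5X stock 250 nM/500 nM) plus glutathione donor and Ni-chelate acceptor beads (5X, 50 ug/mL).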
# * marks the source's active call; other numbers are inactive results; ? = inconclusive; nt = no result given; & = joins results of further samples.
SMILES,TRPV1 PAM,D2 potentiator,TRPML1 ag,CtBP-E1A blk,TRPML1 inh,Six1-Eya2 blk
CC(N=Cc1c(O)c2ccccc2oc1=O)C(=O)O (configuration not stated),-0.9,0.3,0.5,4.6,6.9,-3.4
CCOC(=O)C1CC(=O)c2ccccc2C1c1ccccc1 (configuration not stated),nt,-5.0,0.1,11.2,3.6,1.5
CC(=O)N1CCOc2cc(S(=O)(=O)NC(C)c3ccccc3)c(Cl)cc21 (configuration not stated),-13.9,-5.9,0.1&0.2,-16.7,-13.9&17.0,7.1
CN(C(=O)CSc1nc(N)c2c3c(sc2n1)CSC(C)(C)C3)c1ccccc1,18.3,-19.9,3.0,-7.7,22.9,-10.0
Cc1ccccc1/C=C/c1nc2ccccc2c(=O)n1CCc1ccccc1,-13.3,-6.8,3.0,-0.8,34.9,8.7
O=C(Oc1ccc(Oc2ccccc2)cc1)N1CCC(O)CC1,-15.7,-5.1,-1.1,4.0,-7.4,2.2
O=C(c1ccc(Cn2cnnn2)cc1)N1CCCC(Nc2ccc(F)c(F)c2)C1 (configuration not stated),9.3,-10.3,-0.4,1.9,-10.4,-0.1
CCSC1=C(C#N)C2(CCCC2)C(C#N)=C(N)N1,0.6,-8.9,0.1,-4.7,-12.0,-4.6
CCCc1c(O)c2ccccc2[nH]c1=O,7.5,-29.3,-0.5,0.9,-4.9,-4.9
Cc1cccc(C(=O)Nc2ccnc(-c3ccncc3)n2)c1,-2.8,-10.6,-0.2,nt,-8.6,1.5
COC(=O)CCC(=O)Nc1ccccc1C(N)=O,-2.0,?,-0.1,9.8,-2.8,5.6
CNC(=S)NNC(=O)c1cccn(Cc2ccc(Cl)c(Cl)c2)c1=O,nt,-12.7,0.4,?,6.6,-14.9
CCOc1cc(/C=C2\C(=O)N(Cc3ccco3)C(C)=C2C(=O)OC)ccc1O,7.4,-9.6,3.4,0.0,-6.2,-16.3
O=C1CSC(c2ccncc2)N1Cc1ccco1 (configuration not stated),-0.7,-2.5,0.3,4.5,-14.3,1.0
O=C(CC1CC1)Nc1ccc2c(c1)[C@H]1C[C@H](CC(=O)N3CCc4ccccc4C3)O[C@@H](CO)[C@H]1O2,nt,-1.6,1.6,-12.8,4.9,9.4
COc1ccc2nccc(/C=C/c3ccnc4ccc(OC)cc34)c2c1,0.6,-1.0,1.6,-2.5,40.2,-3.9
COc1ccc(C2c3c(ncn(CCN4CCOCC4)c3=N)Oc3ccc4ccccc4c32)cc1OC (configuration not stated),10.8,-12.4,-0.5&-0.1,-12.4,4.5,4.9&-10.3
CCn1c(COc2ccc(=O)n(-c3ccccc3)n2)nnc1SCc1ccccc1C,-8.7,-5.1,1.2,-1.6,-5.8,2.4
CN1CCN(C(=O)c2c(NC(=O)c3ccco3)sc3c2CCC(C(C)(C)C)C3)CC1 (configuration not stated),3.4,10.6,0.3,3.0,-6.2,-4.2
CC(=O)Nc1nc2ccc(S(=O)(=O)N3CCCCC3)cc2s1,-23.8,-0.6,-0.2,-1.3,31.0,1.8
CCC(C)c1ccc(C(C)NC(=S)NC2CCCCC2)cc1 (configuration not stated),-1.6,-15.9,1.7,-22.7,2.9,13.1
CCOc1ccccc1NC(=O)Cn1nnc(C(=O)NCc2ccco2)c1N,nt,7.9,-0.2,-1.2,?,-3.3
COc1ccc(CC(=O)N/N=C/c2cc([N+](=O)[O-])cc(Br)c2O)cc1,7.6,-10.8,0.2,nt,25.9,-18.7
CCCc1nc2sc3ccccc3c(=O)c2c(=O)n1Cc1ccccc1,nt,-4.5,0.1,-1.1,11.2,5.6
CCSc1nnc(CSc2ncccn2)n1C,17.8,1.8,0.9,4.3,21.7,-0.6

# Of the compounds above, 3 have an aryl thioether with sulfur outside any ring:
SMILES,TRPV1 PAM,D2 potentiator,TRPML1 ag,CtBP-E1A blk,TRPML1 inh,Six1-Eya2 blk
CN(C(=O)CSc1nc(N)c2c3c(sc2n1)CSC(C)(C)C3)c1ccccc1,18.3,-19.9,3.0,-7.7,22.9,-10.0
CCn1c(COc2ccc(=O)n(-c3ccccc3)n2)nnc1SCc1ccccc1C,-8.7,-5.1,1.2,-1.6,-5.8,2.4
CCSc1nnc(CSc2ncccn2)n1C,17.8,1.8,0.9,4.3,21.7,-0.6

# Carrying on.
SMILES,TRPV1 PAM,D2 potentiator,TRPML1 ag,CtBP-E1A blk,TRPML1 inh,Six1-Eya2 blk
CN1c2ccccc2C2(C)CCCC3=Cc4cc([N+](=O)[O-])cc([N+](=O)[O-])c4OC312 (configuration not stated),-2.1,-13.2,-0.2,-10.9,8.7,-11.2
Cc1ccc(NC(=O)c2cccc3c2C(=O)N(C2CCCCC2)C3)cc1,-2.3,-2.5,-0.8,-0.3,19.9,2.4
CCOc1ccccc1NC(=O)CCn1cccc1,-8.9,-24.3,-0.2,-5.0,-4.8,-11.5
Oc1ccc(N2CCN(C(c3ccccn3)c3nnnn3C3CCCC3)CC2)cc1 (configuration not stated),3.4,3.4,-0.1,1.9,14.7,-0.7
COc1cc(C)c(/C=C/C(C)=C/C=C/C(C)=C/C(=O)O)c(C)c1C,nt,-0.2,-0.9,-0.8,11.0,-0.6
CCC(C)(C)n1nnnc1C(c1ccccc1OC)N1CCSCC1 (configuration not stated),-9.4,7.7,-0.1,4.0,7.2,2.9
COc1cccc(CNC(=O)COc2ccc(C(=O)c3ccccc3)cc2)c1,-18.6,-2.4,1.5,-2.2,3.2,3.2
Cc1ccnc(Sc2ccc([N+](=O)[O-])cn2)n1,0.3,-4.4,0.6,1.5,-9.3,6.9
CC(/C=C1\SC(=S)N(CCCC(=O)Nc2ccc(C(=O)O)c(O)c2)C1=O)=C\c1ccccc1,18.2,-5.7,-0.2,?,3.7,-16.4
CCCCn1nnnc1SCC(=O)Nc1sc2c(c1C#N)CCCC2,15.0,-10.2,-0.5,-1.7,-5.5,-26.6
COc1cc(/C=C/C(=O)OCC(=O)NCC2CCCO2)ccc1OCC#N (configuration not stated),-9.0,-0.3,-0.7,-1.3,12.7,-0.3
CCC(C)c1ccccc1NC(=O)COc1ccc(-c2nnco2)cc1 (configuration not stated),-14.4,-12.2,2.7,0.0,-13.7,10.1
N#Cc1ccc(-c2nc3ccc(Cl)cn3c2Cc2cccc(Cl)c2)cc1,nt,-4.6,0.8,9.3,43.4,3.1
Cc1c(C)n(O)c2ccc3nonc3c12,15.7,0.7,1.2,-3.6,0.2,-1.4
O=C(O)c1csc(-n2nc(-c3ccccc3)cc2C(F)(F)F)n1,-1.2,-10.0,1.6,-23.4,18.0,-13.0
CCCCN(C(C)=O)c1c(CC)nc2ccc(C(=O)NCc3cccs3)cn12,nt,-1.9,-1.0,8.5,nt,5.7
Cc1ccc(Nc2oc(C)nc2C#N)cc1,-7.0,7.9,0.2,5.9,-2.1,-5.2
Cc1cc(C)c2[nH]c(=O)c(CN(Cc3ccco3)C(=O)C3CCCO3)cc2c1 (configuration not stated),6.2,-8.5,-1.2,-1.5,15.5,-4.3
CCCn1c(SCC(=O)Nc2ccc3c(c2)OCCO3)nnc1-c1ccco1,10.5,-8.4,1.0,-1.1,0.9,-0.9
Cc1ccc(C)c(OCCCC(=O)O)c1,-10.1,-52.0,-0.3,0.8,-0.3,0.3
CCNc1nc(NCC)nc(OCCOC(=O)c2ccccc2)n1,11.2,-6.8,0.3,4.8,-6.2,4.2
COc1cc([N+](=O)[O-])cc(/C=N/NC(=O)c2ccc(NC(=O)c3ccc(C)cc3)cc2)c1O,-5.0,-2.2,-0.5,?,-0.4,-8.0
CC(C)Nc1cc(C(C)(C)C)nc2c(-c3ccccc3)cnn12,-7.2,-3.0,-0.3,29.1,-4.9,30.2
COc1ccc(-n2c(NNC(C)=O)nc3sc4c(c3c2=O)CCCC4)cc1,-12.5,-24.2,0.5,nt,63.3,0.8
O=C(NC1CCCCC1)N1CCC(c2nc3ccccc3[nH]2)CC1,7.9,1.0,-0.4,7.8,-2.7,5.1

# Additional results:
SMILES,TRPV1 PAM,D2 potentiator,TRPML1 ag,CtBP-E1A blk,TRPML1 inh,Six1-Eya2 blk
O=C(Nc1ccc2c(c1)CCC2)Nc1ccc(F)cc1F,-14.7,-6.9,0.5,-1.2,-11.0,4.0
Cc1nc2ccccc2n1C(=O)N(C)C,-9.3,-2.2,0.6,4.0,-12.6,2.8
COc1ccc(NC(=O)CN(C)C(=O)Cn2cnc3c2c(=O)n(C)c(=O)n3C)cc1,0.5,-5.9,0.2,6.7,0.5,7.0
COc1cc(C(=O)NC23CC4CC(CC(C4)C2)C3)cc(OC)c1OC,-10.3,-6.8,-0.4,9.3,7.7,-5.7
CCc1ccc(CN2CCC(n3nccc3NC(=O)c3ccccc3Cl)CC2)cc1,-1.8,-35.6,0.1,-0.2,-1.4,-5.9
CC1Cc2ccccc2N1C(=O)COC(=O)C1(c2ccccc2F)CCCC1 (configuration not stated),-0.2,-12.0,1.6,6.2,4.5,8.1

# Structures above with a halogen, in the order listed:
SMILES,TRPV1 PAM,D2 potentiator,TRPML1 ag,CtBP-E1A blk,TRPML1 inh,Six1-Eya2 blk
CC(=O)N1CCOc2cc(S(=O)(=O)NC(C)c3ccccc3)c(Cl)cc21 (configuration not stated),-13.9,-5.9,0.1&0.2,-16.7,-13.9&17.0,7.1
O=C(c1ccc(Cn2cnnn2)cc1)N1CCCC(Nc2ccc(F)c(F)c2)C1 (configuration not stated),9.3,-10.3,-0.4,1.9,-10.4,-0.1
CNC(=S)NNC(=O)c1cccn(Cc2ccc(Cl)c(Cl)c2)c1=O,nt,-12.7,0.4,?,6.6,-14.9
COc1ccc(CC(=O)N/N=C/c2cc([N+](=O)[O-])cc(Br)c2O)cc1,7.6,-10.8,0.2,nt,25.9,-18.7
N#Cc1ccc(-c2nc3ccc(Cl)cn3c2Cc2cccc(Cl)c2)cc1,nt,-4.6,0.8,9.3,43.4,3.1
O=C(O)c1csc(-n2nc(-c3ccccc3)cc2C(F)(F)F)n1,-1.2,-10.0,1.6,-23.4,18.0,-13.0
O=C(Nc1ccc2c(c1)CCC2)Nc1ccc(F)cc1F,-14.7,-6.9,0.5,-1.2,-11.0,4.0
CCc1ccc(CN2CCC(n3nccc3NC(=O)c3ccccc3Cl)CC2)cc1,-1.8,-35.6,0.1,-0.2,-1.4,-5.9
CC1Cc2ccccc2N1C(=O)COC(=O)C1(c2ccccc2F)CCCC1 (configuration not stated),-0.2,-12.0,1.6,6.2,4.5,8.1
